# Assay outcomes: PubChem, several laboratories
# PABP FP inh: PABP-poly(A) binding inhibition. P11940. PABP-poly(A) RNA binding, fluorescence polarization. inhibition, % at 35 µM. 1% of 290,000 active. AID 2014;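 active = 50% or more with normal probe brightness, or confirmed in later tests; inconclusive = above 50% with abnormal brightness, or retests that disagree; inactive = below 50% or failed in later tests; about a fifth of its hits are not listed in these tables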;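 note: calls also rest on retests at 20 µM and on dose response follow-up; controls were probe without protein and protein plus probe with vehicle; some compounds called inactive have numbers as strong as hits; many hits fall short of the cut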
# Target sequence (P11940 whole entry, looked up): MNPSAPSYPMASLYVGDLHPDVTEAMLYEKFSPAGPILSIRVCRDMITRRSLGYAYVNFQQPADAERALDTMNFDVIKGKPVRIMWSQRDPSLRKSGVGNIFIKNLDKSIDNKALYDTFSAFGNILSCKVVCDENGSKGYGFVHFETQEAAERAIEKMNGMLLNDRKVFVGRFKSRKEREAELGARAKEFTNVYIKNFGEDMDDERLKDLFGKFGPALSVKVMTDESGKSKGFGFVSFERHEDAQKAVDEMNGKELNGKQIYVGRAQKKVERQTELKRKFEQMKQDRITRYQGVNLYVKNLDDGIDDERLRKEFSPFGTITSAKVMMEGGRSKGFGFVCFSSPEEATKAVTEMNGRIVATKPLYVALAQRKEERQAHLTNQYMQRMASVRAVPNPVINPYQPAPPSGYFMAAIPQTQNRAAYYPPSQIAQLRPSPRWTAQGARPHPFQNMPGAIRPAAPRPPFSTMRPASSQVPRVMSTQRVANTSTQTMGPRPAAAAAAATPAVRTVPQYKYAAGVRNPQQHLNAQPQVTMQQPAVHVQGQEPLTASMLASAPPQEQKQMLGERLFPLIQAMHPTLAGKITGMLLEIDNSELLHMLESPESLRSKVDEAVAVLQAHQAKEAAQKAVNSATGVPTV
# Env fusion inh: blocks HIV Env-driven cell-cell fusion; 1.1% of 360,000 active; inhibition, % at 12.3 µM; AID 651610; HeLa-JRFL Env/CEM21 cell fusion, luciferase;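 active = mean replicate inhibition score of at least 50 and every replicate individually at or above 50; inconclusive = only one of the two criteria met; inactive = mean below 50 and not all replicates reaching 50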;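 note: 0% = plate neutral controls and 100% = maraviroc near 300 nM; one replicate is shown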
# eIF4H inh: inhibitors of RNA binding by human eIF4H | AID 2012 | inhibition, % at 35 µM | eIF4H fluorescence polarization binding assay | Q15056 | 0.94% of 290,000 active;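 active = 50% or more with normal probe brightness, or confirmed in later tests; inconclusive = above 50% with abnormal brightness, or retests that disagree; inactive = below 50% or failed in later tests; about a fifth of its hits are not listed in these tables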;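 note: calls also rest on retests at 20 µM and on dose response follow-up; 0% = protein and probe with vehicle and 100% = probe without protein; strong numbers were not always called active; many hits fall short of the cut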
# MT1-MMP act inh: MT1-MMP (human) activation inhibition; 0.061% of 360,000 active; HT1080 RFP-PRO-GFP cells, GFP/RFP ratio fluorescence, overnight; percent of plate control window, DMSO zero; GFP/RFP ratio change, % at 20 µM; P50281; AID 651647;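 active = GFP/RFP ratio change of at least 30% with cell ATP level not reduced by more than half and red fluorescence within 50% of control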; note: strong numbers were not always called active
#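 Test system: HT1080 cells expressing an RFP-PRO-GFP fluorescent reporter construct / Compound dosing: single-point 20 µM compound, 1% DMSO / Schedule: cells overnight before dosing, compound overnight, 37 °C, 5% CO2 / Evaluation: GFP/RFP fluorescence ratio / Control set: DMSO and RFP-L50D-GFP cell wells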
# CSC inhib: cancer stem cell inhibition; cancer stem cell-like cells viability, luminescence; inhibition, % at 7.5 µM; 1.1% of 300,000 active; AID 2717;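 active = mean at 75% or more and at least half the replicates too; inconclusive = mean and replicates disagree; tested in HMLE shEcad cells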;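 note: 0% = median of negative and 100% = median of positive control wells; the first replicate is given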
# Yeast UUG start: alters start codon recognition fidelity in yeast | S. cerevisiae UUG-firefly luciferase reporter, luminescence/redox ratio | activity score, % at 18.7 µM | 0.13% of 350,000 active;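 active = replicate mean at a twofold rise or more, about +100% in these data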;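 note: firefly luciferase made from a UUG start codon reports start codon fidelity; reporter light over untreated wells divided by growth signal over untreated wells; some hits fall short of that in this replicate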
# Rce1 inhib: blocks yeast Ras-converting enzyme. Q03530. yeast membranes, quenched prenylated peptide cleavage fluorescence. calls only. 0.27% of 290,000 active;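 active = fall in fluorescence gain of 50% or more versus controls, with final raw signal at or below 3038400; inconclusive = same 50% fall but final raw signal above 3038400; inactive = fall in fluorescence gain under 50%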;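 note: plate controls were neutral control wells for no effect and wells lacking membranes for full effect; tested at 10 µM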
# Target sequence (Q03530 whole entry, looked up): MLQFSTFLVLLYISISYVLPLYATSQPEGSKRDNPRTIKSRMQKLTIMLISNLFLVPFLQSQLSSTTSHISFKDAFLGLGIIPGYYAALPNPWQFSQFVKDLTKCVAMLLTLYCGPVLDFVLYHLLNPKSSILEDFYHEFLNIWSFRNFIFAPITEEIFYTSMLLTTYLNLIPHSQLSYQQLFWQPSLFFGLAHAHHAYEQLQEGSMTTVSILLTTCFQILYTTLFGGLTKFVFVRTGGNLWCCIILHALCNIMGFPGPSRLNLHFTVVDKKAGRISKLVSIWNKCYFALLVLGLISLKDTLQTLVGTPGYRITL
# eIF4H inh retest: also measured in eIF4H inh; calls as there; inhibition, %; compound at 20 µM; confirmation average;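 mean of two retest wells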
# PABP FP inh retest: recorded beside PABP FP inh, whose call it bears; inhibition, %; compound at 20 µM; confirmation repeats;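 mean of two retest wells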
# MT1-MMP act inh RFP: further read-out of MT1-MMP act inh, marked with its call; RFP signal change, %; measured here: RFP expression control read;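 0 = vehicle wells; hits needed this value within 50% of zero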
# Numbers without * were called inactive; i = inactive; u = inconclusive; x = not tested or not shown.
# The opening 15 entries (preview)
SMILES,PABP FP inh,Env fusion inh,eIF4H inh,MT1-MMP act inh,MT1-MMP act inh RFP,CSC inhib,Yeast UUG start,Rce1 inhib,others
O=C(COC(=O)c1ccccc1O)Nc1cc([N+](=O)[O-])ccc1Cl,-9,-18,-8,0,-2,-26,-7,i,
Cc1cccc(C(=O)NC2CCN(S(=O)(=O)c3cccc(F)c3)CC2)c1,x,2,x,3,-1,x,-4,x,
N#Cc1cc(-c2ccc(Cl)cc2)cnc1Sc1ccc(F)cc1,2,8,-6,1,-5,27,-11,i,
COCCCNC(=O)Cc1c(C)c2cc3c(cc2oc1=O)OC(C)(C)CC3,-2,-8,1,-1,-1,1,-3,u,
Cc1cc(S(=O)(=O)Nc2ccc(N(C)C)cc2)c(C)s1,-2,17,4,-1,-6,6,3,i,
Cn1cnnc1SCc1ccc(C(=O)O)cc1,1,x,9,0,2,-7,-19,i,
O=C(O)C/C=C(\NC(=O)OCc1ccccc1)C(=O)OCc1ccccc1,-30,-3,-3,-1,7,-18,x,i,
CCOC(=O)N1CCC(=NNc2nc(C)cc(=O)[nH]2)CC1,-12,23,-6,3,3,-6,-23,i,
Cc1ccc(OCCCC(=O)Nc2nccs2)cc1,1,x,2,-3,1,6,-23,i,
Cn1c(N)c(Sc2ccccc2[N+](=O)[O-])c(=O)n(C)c1=O,4,-11,-4,-1,-2,-7,x,i,
O=c1c2c(nc3cc(-c4ccccc4)[nH]n13)CCC2,11,x,-7,0,4,-3,-12,i,
CCOC(=O)C1(Cc2ccccc2)CCCN(C2CCCC2)C1 (configuration not stated),12,6,7,-1,-3,5,x,i,
CC1CCC(C(=O)c2c(O)c3ccccc3oc2=O)CC1 (configuration not stated),14,6,3,-3,-2,50,-1,i,
COC(=O)c1ccccc1NC(=O)CSc1nnc(-c2cccnc2)n1C,-3,x,-5,-4,-1,-16,-5,i,
CC(C)C(NC(=O)c1ccccc1)C(=O)OCC(=O)N1CCN(c2ccccc2)CC1 (configuration not stated),x,0,x,3,1,x,3,x,

# Main list, previewed entries included:
SMILES,PABP FP inh,Env fusion inh,eIF4H inh,MT1-MMP act inh,MT1-MMP act inh RFP,CSC inhib,Yeast UUG start,Rce1 inhib,others
O=C(COC(=O)c1ccccc1O)Nc1cc([N+](=O)[O-])ccc1Cl,-9,-18,-8,0,-2,-26,-7,i,
Cc1cccc(C(=O)NC2CCN(S(=O)(=O)c3cccc(F)c3)CC2)c1,x,2,x,3,-1,x,-4,x,
N#Cc1cc(-c2ccc(Cl)cc2)cnc1Sc1ccc(F)cc1,2,8,-6,1,-5,27,-11,i,
COCCCNC(=O)Cc1c(C)c2cc3c(cc2oc1=O)OC(C)(C)CC3,-2,-8,1,-1,-1,1,-3,u,
Cc1cc(S(=O)(=O)Nc2ccc(N(C)C)cc2)c(C)s1,-2,17,4,-1,-6,6,3,i,
Cn1cnnc1SCc1ccc(C(=O)O)cc1,1,x,9,0,2,-7,-19,i,
O=C(O)C/C=C(\NC(=O)OCc1ccccc1)C(=O)OCc1ccccc1,-30,-3,-3,-1,7,-18,x,i,
CCOC(=O)N1CCC(=NNc2nc(C)cc(=O)[nH]2)CC1,-12,23,-6,3,3,-6,-23,i,
Cc1ccc(OCCCC(=O)Nc2nccs2)cc1,1,x,2,-3,1,6,-23,i,
Cn1c(N)c(Sc2ccccc2[N+](=O)[O-])c(=O)n(C)c1=O,4,-11,-4,-1,-2,-7,x,i,
O=c1c2c(nc3cc(-c4ccccc4)[nH]n13)CCC2,11,x,-7,0,4,-3,-12,i,
CCOC(=O)C1(Cc2ccccc2)CCCN(C2CCCC2)C1 (configuration not stated),12,6,7,-1,-3,5,x,i,
CC1CCC(C(=O)c2c(O)c3ccccc3oc2=O)CC1 (configuration not stated),14,6,3,-3,-2,50,-1,i,
COC(=O)c1ccccc1NC(=O)CSc1nnc(-c2cccnc2)n1C,-3,x,-5,-4,-1,-16,-5,i,
CC(C)C(NC(=O)c1ccccc1)C(=O)OCC(=O)N1CCN(c2ccccc2)CC1 (configuration not stated),x,0,x,3,1,x,3,x,
C=CCN(CC=C)Cc1cc(=O)oc2cc(OC)c(Cl)cc12,x,-20,x,0,-5,x,-13,x,
CCOc1ccc(N(Cc2cc3cc(OC)ccc3[nH]c2=O)S(C)(=O)=O)cc1,-1,-14,-11,2,-1,-12,3,i,
CCOc1ccc(NC(=O)N2CCC(NC(=O)C(Cc3cccc(F)c3)NC(C)=O)CC2)cc1 (configuration not stated),4,6,0,0,1,-25,-1,i,
COc1c(C)c2c(c(O)c1C/C=C(\C)CCC(=O)O)C(=O)OC2,x,x,x,2,10,38,32,i,
CNC(=O)CSc1nc(SC)ns1,-8,-6,-10,2,5,-23,x,i,
O=C(Nc1nnc(SCC(=O)N2CCOCC2)s1)c1ccccc1,-6,-1,-11,0,1,-4,x,i,
CCN(CC)C(=O)c1ccc(Oc2ccc([N+](=O)[O-])cc2Cl)cc1,-1,-8,1,-2,-9,2,17,i,
Clc1ccc(-n2ncc3c(NCc4ccc5c(c4)OCO5)ncnc32)cc1,3,x,9,8,1,7,17,i,
COc1cc(NC(=O)C2CC(c3ccccc3O)=NO2)c(OC)cc1Cl (configuration not stated),-6,-45,-7,1,-2,-8,-19,i,
COc1ccc(N2CCN(C(=O)CN(c3ccccc3)S(=O)(=O)c3ccc(OC)cc3)CC2)cc1,-14,-93,0,-3,-12,0,7,i,
Cc1ccc(C)c(S(=O)(=O)N2CCCCC2CCNC(=O)C(=O)NCc2cccnc2)c1 (configuration not stated),x,15,x,0,-6,-8,-20,i,
CC(C(O)c1cc(=O)c(OCc2ccccc2)co1)[N+](=O)[O-] (configuration not stated),x,3,x,1,4,-9,x,i,
CCOC(=O)c1c(C)n(C)c2ccc(OC)c(NC(=O)CN3CCN(C(=O)c4ccco4)CC3)c12,-2,x,-7,-2,2,-8,12,i,
O=C1C(=O)N(CCCN2CCOCC2)C(c2ccc([N+](=O)[O-])cc2)/C1=C(/O)c1ccc2c(c1)OCO2 (configuration not stated),-23,4,-14,-2,4,-5,-21,i,
CCOC(=O)CN1Cc2cccc(C(=O)O)c2C1=O,4,-8,11,0,5,1,-16,i,
O=c1[nH]c2cc3ccccc3cc2nc1C(F)(F)F,1,23,38,-33,0,-12,-3,i,
Cc1ccccc1S(=O)(=O)Cc1ccc(C(=O)NC2CCCC2)o1,6,-9,-6,-2,0,-3,x,i,
CCc1ccc(CN2CCCC(CCC(=O)N3CCN(c4ccccn4)CC3)C2)o1 (configuration not stated),8,-2,-2,9,5,6,-7,i,
CCN(CC)CCCNC(=S)Nc1ccc(Br)cc1,2,-5,-5,1,2,x,-19,i,
Cc1ccc2oc(=O)c3cc(C(=O)NCCCN4CCCCCC4)sc3c2c1,-28,-13,-11,5,6,-3,-20,i,
Cc1cc(NC(=O)CSc2nnc(NC(=O)C3CC(=O)N(c4ccccc4C)C3)s2)no1 (configuration not stated),-10,8,6,-4,3,-20,-24,i,
CCCn1c(C(CO)Nc2nc(-c3cccc(Br)c3)cs2)nc2ccccc21 (configuration not stated),2,x,-9,3,-1,11,-12,i,
Cc1ccc(S(=O)(=O)N2CCN(CC(=O)N/N=C/c3cc([N+](=O)[O-])ccc3Cl)CC2)cc1,7,-3,7,5,2,-3,x,i,
Cc1ccc(S(=O)(=O)NC(CC(=O)N2CCOCC2)c2ccco2)cc1 (configuration not stated),-5,x,-6,2,6,-1,3,i,
COc1ccc(NC(=O)CN(C)C(=O)c2cc(-c3ccc(C)o3)nc3ccccc23)cc1,x,11,x,5,4,2,x,i,
CCNC(=O)COc1ccc(-c2ccccc2)cc1,-8,-34,-4,4,-3,-11,-6,i,
CCn1c(C)c(P(c2ccccc2)c2ccccc2)[n+]2ccccc12,7,18,0,-1,-4,2,x,i,
CCOC(=O)c1ccc(NC(=O)N(CC)CC)cc1,2,-63,-3,-10,3,-16,-15,i,
CC(C)C1Cc2[nH]c(=S)[nH]c(=O)c2C(c2ccc(F)cc2)O1 (configuration not stated),x,-34,x,2,3,x,-14,x,
CCOC(=O)C1=CN(Cc2cccc(F)c2)S(=O)(=O)NC1c1ccc2ccccc2c1 (configuration not stated),x,36,x,2,-5,x,-7,x,
NC(=O)c1ccsc1NC(=O)c1ccc2c(c1)CCCC2,1,-335,0,-3,-4,70,-35,i,
O=C(O)CSCC(=O)Nc1cccc(C(F)(F)F)c1,8,x,-5,2,4,-2,16,i,
O=C1NC2(CCc3ccccc3C2)C(=O)N1CCOc1cccc(Cl)c1 (configuration not stated),9,x,-7,-1,4,6,1,i,
O=C1CC(SCc2nc3ccccc3[nH]2)C(=O)N1c1ccc(F)c(Cl)c1 (configuration not stated),-6,3,8,-12,10,-4,-25,i,
CC1CC1C(=O)OCC(=O)Nc1ccc2[nH]c(=O)[nH]c2c1 (configuration not stated),18*,-33,u,1,3,-10,x,x,PABP FP inh retest=81*

# Remaining list, next part:
SMILES,PABP FP inh,Env fusion inh,eIF4H inh,MT1-MMP act inh,MT1-MMP act inh RFP,CSC inhib,Yeast UUG start,Rce1 inhib,others
CC(=O)N1CCN(C(=O)CCc2cc(C(C)(C)C)c(O)c(C(C)(C)C)c2)CC1,-2,-2,-7,-1,5,3,-11,i,
Cc1ccc(-n2c(SCC3CNC(=O)O3)nnc2-c2ccccc2)cc1C (configuration not stated),3,x,0,x,x,x,x,i,
COC(=O)c1[nH]nc(-c2ccccc2)c1-c1ccccc1,x,7,x,6,-1,6,x,i,
COc1ccc(NC(=O)C2CCCN2S(=O)(=O)c2ccc3c(c2)CCC(=O)N3)cc1Cl (configuration not stated),12,85*,-6,2,-3,-4,-9,x,
Cc1ccc(S(=O)(=O)N2CCN(C(=O)CCNC(=O)c3ccccc3Cl)CC2)cc1,x,-16,x,0,4,x,-9,x,
COc1ccc(CCNCc2ccc(OCc3ccccc3)cc2)cc1,-2,7,-4,1,3,53,5,i,
N#Cc1c(-c2ccccc2)c(-c2ccccc2)n[nH]c1=O,-2,-5,-6,x,x,x,1,i,
CCOC(=O)c1oc2ccc(S(=O)(=O)n3nc(-c4ccc(C)cc4)cc3N)cc2c1C,-7,7,-8,-5,-18,42,-18,i,
COCCn1c(SCC(=O)Nc2ccccc2OC)nc2ccccc21,96,-6,-7,4,0,-9,x,i,eIF4H inh retest=-15;PABP FP inh retest=3
Cc1ccc(C23CC4CC(CC(C(=O)NCC(=O)O)(C4)C2)C3)cc1,11,6,-5,3,6,-16,4,i,
O=C(OCC(=O)N1CCN(C(=O)c2ccco2)CC1)c1cc(S(=O)(=O)Nc2ccc(Cl)cc2)ccc1O,-7,9,-8,1,-1,-10,x,i,
COc1ccccc1C(O)P(=O)(OCC(C)C)c1ccc(N(C)C)cc1 (configuration not stated),7,27,2,2,3,-3,-4,i,
CC(C)OC(=O)CSc1nnc(Cc2ccccc2)n1Cc1ccco1,10,x,10,-3,3,22,x,i,

# Only part of the results is shown; rates above refer to the full screens.
